# From PubChem
# Prx2 Sm inh: blocks S. mansoni peroxiredoxin 2 enzymatic activity; S. mansoni Prx2 activity coupled to TGR/GSH (TGR is thioredoxin glutathione reductase), NADPH fluorescence loss, qHTS; some inactives read as strong as hits; Potency, µM; 0.07% of 65,000 active; AID 448; active means full or partial inhibition curve with a strong effect at the top dose; inconclusive means weaker partial or single-point curve; inactive means no accepted curve; also: series up to 57 µM; many of its hits are not listed in these tables
#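 Purified S. mansoni TGR and Prx2 in pH 7.4 phosphate buffer with EDTA and Tween-20 were preincubated with compounds for 15 min. Further NADPH/GSH was added, then a 2.5 mM H2O2 aliquot initiated turnover, followed kinetically by NADPH fluorescence.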
# LT uptake inh: blocks cellular internalization of anthrax lethal toxin; AID 912; Cells, anthrax lethal toxin internalization, FRET ratio (460/530); Potency, µM (series often up to 40 µM), inactives show top-dose activity change, negative = inhibition, actives largely listed as inhibitors; 0.67% of 70,000 active; active = well fitted falling ratio curve with the 530 nm signal flat; inconclusive = other ratio curves, or a change in one channel alone; inactive = flat curves in the ratio and both channels; the % refers to the ratio; also: % is scaled to controls: 0 for no effect and ±100 for the full control effect; nearly all actives have a fitted effect of over 50% in size; tested in ME-180 cells; beta-lactamase reporter
# Starred values were filed as active, the others as inactive; ? = inconclusive; nt = no result given; [ ] = dose if it differs, or a comment. Potency is read from the fitted curve at half-maximal effect.
smiles | Prx2 Sm inh | LT uptake inh
Nn1c(SCC(=O)NC2CCCCC2)nnc1C1CC1 | >57 | -10%
C[N+]1([O-])[C@H]2CC[C@H]1CC(OC(=O)[C@@H](CO)c1ccccc1)C2 (some centres not stated) | >57 | -6%[8 µM]
COc1ccc(OC)c(NC(=O)Cn2cnc3c(cnn3-c3ccccc3)c2=O)c1 | >57 | 5%
COc1ccccc1C(O)P(=O)(OC(C)C)c1ccc(N(C)C)cc1 (configuration not stated) | >57 | 6%
N=P(N1CCOCC1)(N1CCOCC1)C12CC3CC(CC(C3)C1)C2 | >57 | 2%
Nc1nc(SCCc2ccccc2)c2[nH]cnc2n1 | >57 | ?
Cc1ccc(S(=O)(=O)N2CC(O)CC2C(=O)Nc2ccc3c(c2)CCC3)cc1 (configuration not stated) | >57 | 6%
COc1ccccc1Oc1ccc(S(=O)(=O)N2CCOCC2)cc1S(=O)(=O)N1CCOCC1 | nt | 15%
C=CCN1C(=O)CSC1=Nc1cccc(O)c1 | >57 | 0%
COc1ccc(NS(=O)(=O)c2ccc(NC(=O)C3CCCO3)cc2)cc1 (configuration not stated) | >57 | -13%
Cc1nc2sc(C(c3ccc(C(C)C)cc3)N3CCN(CCO)CC3)c(O)n2n1 (configuration not stated) | >57 | -7%
COc1cccc(C2=CC(c3cccc(OC)c3OC(F)F)n3nnnc3N2)c1 (configuration not stated) | >57 | -13%
c1nc(N2CCCC2)c2[nH]cnc2n1 | >57 | -2%
O=c1c(-c2ccc(Cl)cc2)coc2c(CN3CCOCC3)c(O)ccc12 | nt | 6.3µM*
CCNC(=O)C1(c2ccccc2)CCCC1 | nt | -2%
O=C(CSc1nnc(-c2ccccc2)o1)N1CCN(c2ccccc2)CC1 | >57 | ?
CCOC(=O)CN1C(=O)NC2NC(=O)NC21 (configuration not stated) | >57 | -13%
COC(=O)C1(C)C=CC2(CCCCC2)N1C(C)=O (configuration not stated) | nt | 5%
Cn1cc(S(=O)(=O)N2CCN(Cc3ccccc3)CC2)c(=O)n(C)c1=O | >57 | 9%
O=C1NCCCC1C(=O)NCCN1C(=O)CCC1=O (configuration not stated) | nt | -10%
O=C1CSC(c2ccccc2F)N1CCN1CCCCC1 (configuration not stated) | >57 | ?
COc1ccc2ncn(-c3ccccc3)c2c1 | >57 | -16%
COc1ncc2nc(-c3ccc(F)cc3)c(=O)n(C3CC3)c2n1 | >57 | ?
COc1cccc(C(C(=O)NCc2ccco2)N(C(=O)Cn2nnc3ccccc32)C2CC2)c1OC (configuration not stated) | >57 | ?
Cc1nc(N)sc1-c1csc(Nc2ccc(Cl)cn2)n1 | >57 | ?
Cc1cnc(CNc2ncncc2-c2ccccc2CN(C)C)cn1 | >57 | 7%
Cc1ccc(-n2c(=O)c3sccc3n(CC(=O)N3CCCC3)c2=O)cc1 | >57 | 2%
Cc1ccc(Cn2ccc(NC(=O)C3C4CCC(C4)C3C(=O)O)n2)cc1 (configuration not stated) | >57 | ?
CCc1nc(Nc2ccc3nccnc3c2)c2oc3ccccc3c2n1 | >57 | ?
COc1ccc(CCNC(=O)C2CCN(S(=O)(=O)c3cccc4nonc34)CC2)cc1OC | >57 | -11%
COCCn1c(=O)c(-c2ccc(OC)cc2)nc2cnc(N3CCN(C)CC3)nc21 | >57 | ?
O=C(NC1CCCCCC1)C1CCN(c2nc3ccccc3o2)CC1 | >57 | 6%
CC(C)Oc1ccc(CNCC2(O)CCOC(C)(C)C2)cc1 (configuration not stated) | >57 | 8%
O=C(Cn1nnc(-c2ccccc2NC(=O)c2ccco2)n1)Nc1ccccc1 | >57 | 0%
CCN1C(=O)c2ccccc2Sc2ccc(C(=O)N3CCC4(CC3)OCCO4)cc21 | >57 | 1%
COc1ccc(C(=O)Nc2cc(=O)n(C)c(=O)n2C)cc1OC | >57 | 19%
CCOC(=O)C1=C(C)NC(=O)NC1c1ccc(C)o1 (configuration not stated) | >57 | -3%
Cc1ccc(S(=O)(=O)N2CC(=O)Nc3ccccc32)cc1C | >57 | -3%
O=C(NCc1ccco1)C1CCN(c2nc3ccccc3n2Cc2ccc(F)cc2)CC1 | >57 | -4%
CCc1ccccc1NC1c2ccccc2C(=O)N1Cc1ccco1 (configuration not stated) | >57 | -14%
O=C(C1CCCN(S(=O)(=O)Cc2ccccc2)C1)N1CCCCC1 (configuration not stated) | >57 | 11%
O=C(Cn1cnc2ccccc2c1=O)OCCCCN1C(=O)c2ccccc2C1=O | >57 | 8%
Cn1c2ccccc2c2ncn(CCN3CCOCC3)c(=O)c21 | >57 | -5%
O=C(NCc1n[nH]c(=S)n1-c1ccccc1)c1ccc(S(=O)(=O)N2CCOCC2)cc1 | >57 | 10%
Cc1cc(C(=O)N2CCN(C/C=C/c3ccccc3)CC2)no1 | >57 | 0%
O=c1n(Cc2ccc(Cl)cc2)c2sc3c(c2c2ncnn12)CCCC3 | >57 | 8%
C[C@@H]1O[C@H](C[N+](C)(C)C)C[C@H]1O | >57 | -6%
O=C(NCc1ccncc1)c1ccc(Br)cc1 | >57 | -9%
O=S(=O)(c1ccc2nc(Cc3cccc(C(F)(F)F)c3)[nH]c2c1)N1CCOCC1 | >57 | -11%
CN(C)P1(N(C)C)=NC(C(F)(F)F)=NC(C(F)(F)F)=N1 | nt | -3%

# Full records, quoted from the list. Values in the order: Prx2 Sm inh | LT uptake inh
# Entry for Cc1cnc(CNc2ncncc2-c2ccccc2CN(C)C)cn1 : >57 | 7%
# Entry for O=C(NC1CCCCCC1)C1CCN(c2nc3ccccc3o2)CC1 : >57 | 6%
# Entry for COCCn1c(=O)c(-c2ccc(OC)cc2)nc2cnc(N3CCN(C)CC3)nc21 : >57 | ?
# Entry for CC(C)Oc1ccc(CNCC2(O)CCOC(C)(C)C2)cc1 (configuration not stated) : >57 | 8%

# Next section
smiles | Prx2 Sm inh | LT uptake inh
Cc1cc(C)n(-c2ncnc3sc4c(c23)CC(C)CC4)n1 (configuration not stated) | nt | -12%
NC(Cc1cccc2nsnc12)C(=O)O (configuration not stated) | >57 | -11%
O=C(Nc1cccc(C(F)(F)F)c1)c1ccco1 | >57 | ?
COc1cccc(-c2nn3c(-c4cccc(C)c4)nnc3s2)c1 | >57 | 2%
CN(C)c1ncc2nc(-c3ccc(F)cc3)c(=O)n(-c3ccccc3)c2n1 | >57 | ?
COC(=O)\C(C(C)=O)=C(/C=C/C=C/N(C)C)N(C)C | >57 | -13%
Cc1ccc(Nc2nc(CSc3nnc(-c4cccs4)o3)cs2)cc1 | >57 | ?
Cc1ccc2c(CC(=O)NCc3ccco3)coc2c1C | >57 | ?
CC(=O)c1cccc(NC(=O)Nc2cnn(Cc3ccc(F)cc3)c2)c1 | >57 | -28%
Cc1cc(-c2ccccc2)c(C#N)c(N)n1 | nt | 6%
Cn1c(=O)c2c(SCC(=O)NCc3ccco3)nc(CC(C)(C)C)nc2n(C)c1=O | >57 | -3%
COc1ccc(CNC(=O)c2cc(-c3ccc(OC)c(OC)c3)on2)cc1 | >57 | 5%
O=C(Oc1ccccc1)N1CCC2(CCCN(c3ccccc3)C2)CC1 | >57 | ?
COc1ccc(OC)c(C(c2nnnn2Cc2ccccc2)N2CCN(C)CC2)c1 (configuration not stated) | >57 | 16%
CCCC(=O)Nc1ccc2oc(-c3cccnc3)nc2c1 | >57 | 4%
COC(=O)c1ccc(/C=N/n2cnnc2)cc1 | >57 | 4%
Cn1c(SCC(=O)NCc2ccco2)nnc1-c1cccs1 | >57 | 0%
O=C(c1ccco1)N1CCC(c2ccccc2)C1 (configuration not stated) | nt | 1%
CN(C)C(=O)c1ccc(-c2nccc(-n3ccnc3)n2)cc1 | >57 | -2%
Oc1cccc2cccnc12 | >57 | ?
CCOC(=O)N1CCN(C(=O)c2cnn3c(C(F)F)cc(-c4ccc(C)cc4)nc23)CC1 | >57 | 3%
O=C(CCCn1c(=O)[nH]c2ccsc2c1=O)N1CCN(c2ccccn2)CC1 | >57 | -4%
CCOc1ccccc1NC(=O)CCn1c(=O)oc2ccccc21 | >57 | -4%
N#CCCN1CCN(C(=S)c2ccc(-c3cccc(Cl)c3)o2)CC1 | >57 | ?
O=C(OCn1nnc2ccccc2c1=O)C1CCCCC1 | >57 | ?
Cc1cc2c(cc1C)NC(c1c(C)n(C)n(-c3ccccc3)c1=O)C1=C(CC(C)(C)CC1=O)N2 (configuration not stated) | >57 | ?
CCc1ccccc1N(CC(=O)NCCSCc1ccco1)S(C)(=O)=O | nt | -8%
N#Cc1cccc2cnccc12 | >57 | 8%
COc1cccc(Cn2c(=O)c(-c3cccc(Cl)c3)nc3cncnc32)c1 | >57 | -5%
CC(C)CCn1c(Br)nc2c1c(=O)n(CC(N)=O)c(=O)n2C | >57 | -21%
O=S1(=O)C=C(Sc2nc3ccccc3s2)c2ccccc21 | >57 | ?
CC(=O)Oc1ccc(NC(=O)CSc2ccccc2)cc1 | >57 | 13%
Cn1cnnc1SCNC(=O)C(F)(F)F | >57 | -2%
N[C@@H](Cc1c[nH]c2ccccc12)c1nnc(SCc2ccc(F)cc2)o1 | >57 | ?
COc1ccc(-n2c(O)c(C(C)=NCCN3CCNCC3)c(=O)[nH]c2=O)cc1 | >57 | nt
CC(=O)c1ccc(OCCCC(=O)n2nnc3ccccc32)cc1 | >57 | -6%
NC(=O)C1(N2CCCCC2)CCN(Cc2nc3ccccc3c(=O)[nH]2)CC1 | >57 | -11%
CC1Cc2ccccc2N1S(=O)(=O)c1cccc2nsnc12 (configuration not stated) | >57 | ?
COC(=O)[C@@]1(Cc2ccc(F)cc2)[C@H]2c3cc(C(=O)N4CCCC4)n(CCCNc4ncc(C(F)(F)F)cc4Cl)c3C[C@H]2CN1C(=O)c1ccccc1 | >57 | ?
CS(=O)(=O)Nc1cccc(-c2nc(Nc3ccc(F)cc3)c3ccccc3n2)c1 | >57 | 10µM*
COC(=O)c1oc2ccc(OC)cc2c1N | >57 | 2%
COc1ccc(OC)c2sc(NC(=O)C(C)C)nc12 | >57 | ?
CCOC(=O)C1C(=O)C=C(C)C(C(=O)OCC)C1c1ccc(OC)cc1 (configuration not stated) | >57 | ?
O=c1[nH]c2cc(Cl)c(Cl)cc2[nH]c1=O | >57 | -1%
COC(=O)CCNc1ccc2c(c1)OCCO2 | >57 | 4%
CC(CNCc1ccc2c(c1)OCO2)NCc1ccc2c(c1)OCO2 (configuration not stated) | >57 | -8%
COc1ccc(-c2nnc(SCC(=O)NCc3ccco3)n2C)cc1 | >57 | 4%
c1ccc2c(c1)nc(NCC1CCCO1)c1nnnn12 (configuration not stated) | nt | -5%
O=C(C[C@@H](c1ccccc1)N1CCCCC1)c1ccccc1 | >11 | -14%[8 µM]
N#Cc1c(NC(=O)CSc2nc(-c3ccco3)cc(C(F)(F)F)n2)sc2c1CCCC2 | >57 | -2%

# New compounds follow.
smiles | Prx2 Sm inh | LT uptake inh
COc1ccc(C(=O)CSc2nnc(CNc3ccc(C)cc3C)o2)cc1 | >57 | -9%
COCCn1c(SCC(=O)Nc2cc(C)cc(C)c2)nnc1C(C)C | >57 | 0%
O=C(c1ccc2c(=O)n(Cc3ccc4c(c3)OCO4)c(=S)[nH]c2c1)N1CCCCC1 | >57 | 1%
Cc1noc(NS(=O)(=O)c2ccc(NC(=O)CSc3nc4c(cc3C#N)CCC4)cc2)c1C | nt | 3%
O=C(CCC(=O)N(CC(=O)NC1CCCCC1)Cc1ccco1)Nc1nccs1 | >57 | -19%
Cc1ccc(S(=O)(=O)N2CCN(S(=O)(=O)N3CCCCC3)CC2)cc1 | >57 | 2%
CCCCN(C(=O)NC(=O)Nc1ccccc1OC)S(C)(=O)=O | >57 | 4%
COc1ccccc1Nc1nc(N)nc(CN(C)C2CCCCC2)n1 | >57 | 5%
CCNC(=O)COc1ccc(Br)cc1Cl | >57 | 4%
CC1(C)Cc2c(c(=S)nc(-c3ccccc3)n2CCOCCO)CO1 | >57 | 7%
CC(=O)N1CCN=C1SCc1ccccc1Cl | >57 | 3%
CSc1ccc(Cl)c(C(=O)NCc2ccco2)c1 | nt | 1%
CCC(=O)n1nc(-c2cccnc2)nc1NCc1ccc(OC)cc1 | >57 | -15%
Clc1ccc(C=NC23CN4CN(CN(C4)C2)C3)cc1 | nt | 2%
O=[N+]([O-])/C=C/c1ccccc1 | nt | 4µM*
O=C(C1CCN(Cc2ccc(F)cc2)CC1)N(CCO)Cc1ccccc1 | >57 | 6%
Cc1ccc(-c2c(C#N)c(N)nc3c2CCCCCC3)o1 | >57 | -3%
O=C(NC1CC1)C1CCN(c2ccc(S(=O)(=O)N3CCOCC3)cc2Cl)CC1 | >57 | -8%
COc1ccc(OCCn2c(NC(=O)c3ccco3)nc3ccccc32)cc1 | >57 | -18%
COc1ccc(NC(=O)CNCCC2=CCCCC2)cc1 | >57 | -3%
Cc1ccc(S(=O)(=O)N2CCN(C(=O)c3cc(=O)[nH]c4ccccc34)CC2)c(C)c1 | >57 | ?
CCN(CC)CCCC(C)n1c(-c2ccccc2)nc2c(NCc3ccccc3)nc(C)nc21 (configuration not stated) | nt | ?
O=C(c1noc2c1CCCC2)N1CCN(C(c2ccccc2)c2ccccc2)CC1 | >57 | 6%
O=C(COC(=O)c1cccs1)NCc1ccco1 | >57 | 20%
N#Cc1nc(Cc2cccc3ccccc23)oc1NCCN1CCCCC1 | >57 | ?

# An excerpt; count on the stated rates, not on these rows.
